# UUG fidelity: alters start codon recognition fidelity in yeast | activity score, % at 18.7 µM | S. cerevisiae UUG-firefly luciferase reporter, luminescence/redox ratio | 0.13% of 350,000 active;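 active means replicate mean at a twofold rise or more, about +100% in these data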;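 further: firefly luciferase made from a UUG start codon reports start codon fidelity; reporter light over untreated wells divided by growth signal over untreated wells; some hits fall short of that in this replicate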
# eIF4H inh: inhibitors of RNA binding by human eIF4H; Q15056; eIF4H fluorescence polarization binding assay; inhibition, % at 35 µM; 0.94% of 290,000 active; AID 2012;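 active means 50% or more with normal probe brightness, or confirmed in later tests; about a fifth of its hits are not listed in these tables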;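 further: calls also rest on retests at 20 µM and on dose response follow-up; 0% = protein and probe with vehicle and 100% = probe without protein; strong numbers were not always called active; many hits fall short of the cut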
# CSC inhib: blocks cancer stem cells | cancer stem cell-like cells viability, luminescence | inhibition, % at 7.5 µM | 1.1% of 300,000 active | AID 2717;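 active means mean at 75% or more and at least half the replicates too; tested in HMLE shEcad cells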;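 further: 0% = median of negative and 100% = median of positive control wells; the first replicate is given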
# Rce1 inhib: inhibitors of yeast Ras-converting enzyme; yeast membranes, quenched prenylated peptide cleavage fluorescence; calls only; 0.27% of 290,000 active; AID 2563;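 active means fall in fluorescence gain of 50% or more versus controls, with final raw signal at or below 3038400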;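 further: plate controls were neutral control wells for no effect and wells lacking membranes for full effect; tested at 10 µM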
# HIV Env fusion: inhibitors of HIV Env-mediated cell fusion; HeLa-JRFL Env/CEM21 cell fusion, luciferase; inhibition, % at 12.3 µM; 1.1% of 360,000 active; AID 651610;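 active means mean replicate inhibition score of at least 50 and every replicate individually at or above 50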;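 further: 0% = plate neutral controls and 100% = maraviroc near 300 nM; one replicate is shown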
# MT1-MMP act inh: inhibitors of human MT1-MMP activation | P50281 | HT1080 RFP-PRO-GFP cells, GFP/RFP ratio fluorescence, overnight; percent of plate control window, DMSO zero | GFP/RFP ratio change, % at 20 µM | 0.061% of 360,000 active | AID 651647;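 active means GFP/RFP ratio change of at least 30% with cell ATP level not reduced by more than half and red fluorescence within 50% of control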; further: strong numbers were not always called active
#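 Assay system: HT1080 cells carrying an RFP-PRO-GFP reporter | Dosing: Single dose of 20 µM compound, 1% DMSO final | Incubation: Cells overnight before dosing, compound overnight, 37 °C, 5% CO2 | Evaluation: GFP/RFP fluorescence ratio | Control set: DMSO and RFP-L50D-GFP cell wells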
# PABP polyA inh: blocks human PABP binding to poly(A) RNA. 1% of 290,000 active. AID 2014. inhibition, % at 35 µM. fluorescence polarization;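 active means 50% or more with normal probe brightness, or confirmed in later tests; about a fifth of its hits are not listed in these tables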;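 further: calls also rest on retests at 20 µM and on dose response follow-up; controls were probe without protein and protein plus probe with vehicle; some compounds called inactive have numbers as strong as hits; many hits fall short of the cut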
# Target sequence (P11940 whole entry, looked up): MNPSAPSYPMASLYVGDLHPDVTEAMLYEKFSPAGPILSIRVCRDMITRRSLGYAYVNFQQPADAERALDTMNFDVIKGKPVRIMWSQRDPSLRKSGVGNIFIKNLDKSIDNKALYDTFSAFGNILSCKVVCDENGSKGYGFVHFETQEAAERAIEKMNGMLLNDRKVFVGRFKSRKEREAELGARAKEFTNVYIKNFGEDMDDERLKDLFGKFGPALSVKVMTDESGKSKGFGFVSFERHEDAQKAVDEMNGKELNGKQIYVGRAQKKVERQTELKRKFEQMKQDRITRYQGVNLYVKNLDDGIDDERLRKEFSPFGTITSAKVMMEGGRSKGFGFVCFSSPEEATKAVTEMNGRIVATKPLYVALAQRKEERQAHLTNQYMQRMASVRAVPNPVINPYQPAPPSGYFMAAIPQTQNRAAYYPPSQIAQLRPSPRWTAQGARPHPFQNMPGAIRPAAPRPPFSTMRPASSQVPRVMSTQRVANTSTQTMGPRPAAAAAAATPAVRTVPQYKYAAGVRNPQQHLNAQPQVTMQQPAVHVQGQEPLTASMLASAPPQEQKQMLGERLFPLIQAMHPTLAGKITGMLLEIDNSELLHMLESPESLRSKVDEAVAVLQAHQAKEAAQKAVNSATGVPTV
# eIF4H inh retest: further read-out of eIF4H inh, marked with its call; inhibition, %; compound at 20 µM; confirmation average;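 mean of two retest wells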
# PABP polyA inh retest: further read-out of PABP polyA inh, marked with its call; inhibition, %; compound at 20 µM; confirmation repeats;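 mean of two retest wells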
# MT1-MMP act inh RFP: recorded beside MT1-MMP act inh, whose call it bears; RFP signal change, %; measured here: RFP expression control read;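 0 = vehicle wells; hits needed this value within 50% of zero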
# Starred values were filed as active, the others as inactive; i = inactive; · = not tested or not shown. An excerpt; count on the stated rates, not on these rows.
SMILES,UUG fidelity,eIF4H inh,CSC inhib,Rce1 inhib,HIV Env fusion,MT1-MMP act inh,MT1-MMP act inh RFP,PABP polyA inh,others
COc1ccc(C2NC(=O)NC(C)=C2C(=O)Nc2cc(C)ccc2C)cc1OC (stereo not drawn),-21,-2,-10,·,·,2,3,7,
CC(C)(C)NC(=O)C1CCN(S(=O)(=O)c2cccc3nsnc23)CC1,-9,-11,-3,i,11,-1,1,-1,
O=C(Nc1ccccc1)c1cc(C2CCCCN2S(=O)(=O)c2ccc(F)cc2F)on1 (stereo not drawn),-9,·,·,·,47,-1,-17,·,
COc1ccc(CCN(C)C(=O)c2cc(=O)c3ccccc3o2)cc1OC,-9,-2,-12,i,-25,3,5,0,
CCCCC(=O)Nc1cccc(NC(=O)c2cccc([N+](=O)[O-])c2)c1,·,-10,-6,i,-2,0,-1,-4,
O=C(O)c1ccc(C(=O)O)c(C(=O)c2ccccc2)c1,-17,-6,-13,i,7,-2,4,4,
CCOC(=O)[C@H]1[C@H]2COc3cc(OC)ccc3[C@@H]2N2C(=O)c3cc(F)ccc3NC(=O)[C@@]12C,1,·,0,·,35,-3,2,·,
CCCCNC(=O)c1cnc2n(c1=O)CCS2,-19,4,1,i,-1,-1,4,-3,
COc1ccc(NC(=O)CSc2nncn2C)cc1,-10,2,-1,i,-82,-1,3,3,
COCCCNC(=O)c1c(N)n(-c2ccc3c(c2)OCO3)c2nc3ccccc3nc12,1,54,9,i,-3,-4,-5,49,eIF4H inh retest=35;PABP polyA inh retest=26
Nc1cccc(Oc2ccc([N+](=O)[O-])cc2)c1,·,10,-12,i,5,0,-1,8,
Cc1cccc(C)c1OCc1cc(C(=O)NCc2cn(C)nc2C)no1,-10,2,-12,i,·,2,-4,16,
O=C(c1cn[nH]c1)c1cc(F)ccc1O,·,1,0,i,·,-5,-3,5,
CC(C)(C)c1cc(NC(=O)c2ccco2)n(-c2ccccc2)n1,·,-1,-7,i,3,0,2,-5,
Cc1ccc(CCNC(=O)c2nn(C)c3c2CS(=O)(=O)c2ccccc2-3)cc1,-24,·,-9,i,2,4,1,·,
CCCc1[nH]c2ccc(C#N)cc2c1CCC,-19,-1,82*,i,-153,-3,-3,-1,
Cc1cc(C(=O)CCC(=O)N2CCN(S(=O)(=O)c3ccccc3)CC2)c(C)s1,20,·,-7,i,-3,-3,1,·,
Cn1c(SCC(=O)Nc2cc([N+](=O)[O-])ccc2F)nnc1C(F)(F)F,·,-2,-8,i,0,2,1,3,
Cc1sc2nc(C3CC3)nc(N3CCN(S(=O)(=O)c4ccc(F)cc4)CC3)c2c1C,-12,1,11,i,·,-10,-4,-4,
Cc1noc(C)c1C(c1ccccc1)S(=O)(=O)c1ccccc1 (stereo not drawn),-6,-5,·,i,-3,2,4,0,

# Quoted from above, two compounds:
SMILES,UUG fidelity,eIF4H inh,CSC inhib,Rce1 inhib,HIV Env fusion,MT1-MMP act inh,MT1-MMP act inh RFP,PABP polyA inh,others
Cc1sc2nc(C3CC3)nc(N3CCN(S(=O)(=O)c4ccc(F)cc4)CC3)c2c1C,-12,1,11,i,·,-10,-4,-4,
Cc1noc(C)c1C(c1ccccc1)S(=O)(=O)c1ccccc1 (stereo not drawn),-6,-5,·,i,-3,2,4,0,

# A draw from above in order of SMILES length, ascending:
SMILES,UUG fidelity,eIF4H inh,CSC inhib,Rce1 inhib,HIV Env fusion,MT1-MMP act inh,MT1-MMP act inh RFP,PABP polyA inh,others
Nc1cccc(Oc2ccc([N+](=O)[O-])cc2)c1,·,10,-12,i,5,0,-1,8,
O=C(O)c1ccc(C(=O)O)c(C(=O)c2ccccc2)c1,-17,-6,-13,i,7,-2,4,4,
Cn1c(SCC(=O)Nc2cc([N+](=O)[O-])ccc2F)nnc1C(F)(F)F,·,-2,-8,i,0,2,1,3,

# Back to the main list with the four entries that preceded the break.
SMILES,UUG fidelity,eIF4H inh,CSC inhib,Rce1 inhib,HIV Env fusion,MT1-MMP act inh,MT1-MMP act inh RFP,PABP polyA inh,others
Cc1cc(C(=O)CCC(=O)N2CCN(S(=O)(=O)c3ccccc3)CC2)c(C)s1,20,·,-7,i,-3,-3,1,·,
Cn1c(SCC(=O)Nc2cc([N+](=O)[O-])ccc2F)nnc1C(F)(F)F,·,-2,-8,i,0,2,1,3,
Cc1sc2nc(C3CC3)nc(N3CCN(S(=O)(=O)c4ccc(F)cc4)CC3)c2c1C,-12,1,11,i,·,-10,-4,-4,
Cc1noc(C)c1C(c1ccccc1)S(=O)(=O)c1ccccc1 (stereo not drawn),-6,-5,·,i,-3,2,4,0,
O=c1[nH]cnc2c1oc1ccccc12,-15,1,-10,·,-74,-1,0,-3,
CN(c1ccccc1)S(=O)(=O)c1ccc(Cl)c(C(=O)NCc2ccco2)c1,-16,·,·,·,-17,-3,-1,·,
COc1ccc(Cl)cc1NC(=O)CN(C)C(=O)c1cc2c(F)cccc2s1,-25,·,47,·,·,3,-9,·,
CN(CCOCCOc1ccc(Cl)cc1Br)Cc1ccccc1,·,-6,44,i,42,0,1,-5,
Cc1ccnc(NC(=O)c2ccccc2NC(=O)C(C)(C)C)c1,28,-10,-8,i,·,0,-5,-7,
C=CS(=O)(=O)c1sc(Cl)c(N2CCOCC2)c1[N+](=O)[O-],·,-9,·,i,-11,1,3,-2,
COc1ccc(NC(=O)N2CCCCCC2)cc1,·,1,-8,i,-11,5,3,3,
N/C(Cc1cccc2ccccc12)=N\OC(=O)COc1ccccc1,-6,40,9,i,-25,-3,9,-2,
COC(=O)c1ccc(NC(=O)CN2CCN(S(=O)(=O)c3cc(Cl)ccc3OC)CC2)cc1,12,0,17,i,·,1,-5,3,
CCCn1c(OC)nc2c1c(=O)n(C)c(=O)n2C,-3,7,-10,·,3,0,4,12,
Cc1ccc(NS(=O)(=O)c2ccc3c(c2)NC(=O)CCS3)cc1F,-23,-4,-9,i,-2,-6,-1,-4,
Cn1c(=O)c2c(nc(N3CCOCC3)n2C)n(C)c1=O,1,-9,13,i,·,-1,2,9,
Cc1onc(-c2c(Cl)cccc2Cl)c1-c1nnc(-c2ccc(Cl)cc2)o1,-17,-4,28,i,13,-1,-24,4,
CCOc1ccc(NC(=O)NNC(=O)c2cccnc2)cc1,-32,-1,10,i,-2,-1,1,-1,
CCOC(=O)c1sc(NC(=O)COC(=O)c2ccco2)nc1C,-1,-8,-14,i,·,4,2,9,
O=C(Cc1ccc([N+](=O)[O-])cc1)NC1CCCCCC1,-13,2,-4,i,1,-1,-4,5,
CCOC(=O)CC1C(=O)NCCN1S(=O)(=O)c1ccc(Br)cc1 (stereo not drawn),·,3,-7,i,16,0,3,-5,
O=P(C1=C(N2CCOCC2)/C(=C\c2ccccc2)CC1)(N1CCOCC1)N1CCOCC1,-5,2,-2,i,·,3,4,5,
Cc1[nH]nc(-c2ccc(O)cc2O)c1Oc1ccccc1,-13,2,51,i,·,6,-7,0,
Brc1ccc(OCc2nc(-c3ccccn3)n[nH]2)cc1,-32,21,5,i,·,2,0,8,
Cc1cccc(NC(=O)Cn2cnc3c(oc4ccccc43)c2=O)c1C,-5,13,-8,i,10,-1,2,-8,
CSc1ncccc1C(=O)OCc1ccccc1F,·,-4,-1,i,·,0,1,0,
COc1ccc(-c2cc(=O)oc3cc(OCC(=O)Nc4ccc(CCO)cc4)ccc23)cc1,-4,-6,-15,i,17,5,-19,5,
COc1ccc(-n2nc(C(=O)Nc3nc4ccc(OC)cc4s3)c3ccccc3c2=O)cc1,·,3,5,i,-7,3,6,-4,
O=C(Cn1nc(Cc2cccnc2)c2ccccc2c1=O)Nc1ccccc1F,-5,1,-15,i,3,6,6,-3,
CCc1nccn1S(=O)(=O)c1cc(Br)ccc1OC,-27,-9,-18,i,-16,5,-2,-10,
NC(=O)C1CCN(Cc2ccc(OCc3ccccc3)cc2)CC1,-15,4,15,i,-35,3,1,4,
c1ccc(COc2ccc(OCCCNC3CCCC3)cc2)cc1,-5,6,-3,i,-34,4,1,-4,
CCN1C(=O)[C@H]2[C@H]3CN=C(SCC4CC4)N3[C@@](Cc3ccccc3)(C(=O)OC)[C@H]2C1=O,-2,·,·,·,30,1,-1,·,
CC1=C(C(=O)O)N2C(=O)C(NC(=O)c3c(F)cccc3F)C2SC1 (stereo not drawn),-1,·,·,·,-4,2,5,·,
CCOC(=O)c1sc(/N=C/N(C)C)nc1C,-1,2,-8,i,·,-3,2,-10,
CC[C@@]12C(=O)N(c3cccc(F)c3)C(=O)N1[C@H](c1ccc(Br)cc1)[C@@H]1C(=O)N(C(C)(C)C)C(=O)[C@@H]12,0,·,-18,i,98*,-3,-6,·,
CCOC(=O)N(C)c1c(CC)nc2c(OCc3ccc(Cl)cc3Cl)cccn12,-15,·,·,·,9,3,-9,·,
N#CC1=C(N)C(C#N)(C#N)C2(C(=O)Nc3ccccc32)C2CCCC=C12 (stereo not drawn),-7,49,-16,i,-13,-7,2,47,
O=C(NC1(C(F)(F)F)C(=O)Nc2c1c(=O)[nH]c(=O)n2Cc1ccccc1)c1ccc(Cl)cc1Cl (stereo not drawn),-7,2,0,i,·,-4,3,-8,
COc1ccc(NC(=O)CCCNC(=O)c2ccc(Cl)cc2)cc1S(=O)(=O)N1CCOCC1,-20,·,·,·,7,-2,0,·,
Cc1nn(Cc2ccc(Cl)cc2)c(C)c1NC(=O)C1CC=CCC1C(=O)O (stereo not drawn),-7,3,-9,i,·,8,1,8,
Cc1ccc2[nH]c(C)c(CCNC(=O)NC3CCCCC3)c2c1,-14,95,2,i,-10,8,2,6,eIF4H inh retest=45;PABP polyA inh retest=7
CCOc1ccc(CCN2C(=S)N([C@@H](CC(C)C)CN3CCC[C@@H]3CN3C(=S)NC[C@@H]3Cc3ccccc3)C[C@@H]2Cc2ccc(O)cc2)cc1,-15,·,·,·,-14,2,-8,·,
O=C(c1cc(-c2ccc(Br)cc2)on1)N1CCOCC1,-36,4,4,i,-47,1,-3,4,
N#CCCCSc1nnc(Cc2ccc3c(c2)OCO3)o1,-13,0,5,i,·,2,0,2,
N#Cc1cccc(C#N)c1Oc1ccc(S(=O)(=O)Nc2ccccc2)cc1,-10,-1,-2,i,-3,-8,-7,7,
CC(C(=O)Nc1ccc(C(F)(F)F)cc1)N(C)CC(=O)N1CCN(Cc2ccccc2)CC1 (stereo not drawn),-13,·,-7,·,33,4,-3,·,
Cc1cc(C)n(CCCNC(=O)CCNS(=O)(=O)c2ccccc2C(F)(F)F)n1,-18,-6,·,i,-1,-5,-2,-6,
COc1ccc(NC(=S)Nc2cnc3ccccc3c2)c(OC)c1,·,-3,20,i,12,-1,1,5,
O=C(NC(=S)N1CCN(c2ccc(F)cc2)CC1)c1cccs1,-36,1,5,i,-8,9,1,1,
Cc1cc(NC(=O)CSc2nnc3c4c(C)c(C)sc4ncn23)no1,-30,-4,-15,i,·,0,-9,4,
O=C(Nc1ccc(NC(=O)C23CC4CC(CC(C4)C2)C3)cn1)c1ccco1,-11,-3,10,i,-142,1,1,0,
COc1ccc(CN(CCCN2CCOCC2)C(=O)Nc2cccc(Cl)c2)cc1OC,11,1,-5,i,·,-5,2,-6,
O=C(NNC(=O)c1ccc(Br)o1)c1ccc(NS(=O)(=O)c2cccs2)cc1,-4,·,·,·,-17,1,4,·,

# Screens from PubChem BioAssay.
